Screening results from PubChem BioAssay.
Sa growth inh: S. aureus growth inhibition at 42 and 30 °C, primary screen, LtaS inhibitor project, RN4220, two temperatures; 170,000 tested, 0.53% active; OD600, 20 h, 42 °C; stronger effect = lower value; relative growth, % (test concentration not listed);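 active means growth at 42 °C up to 50% and 20 or more points under that at 30 °C, or under 10% at both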;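 further: 300 nL library stock went into each well; scaled to the means of positive and negative controls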
GIV-Gai inh: inhibitors of GIV peptide binding to Galpha-i3, primary screen, biochemical, fluorescence polarization, FITC-GIV GBA peptide, rat Galphai3; 90 min; stronger effect = lower value; scaled: aluminum fluoride 0%, vehicle 100%; Guanine nucleotide-binding protein G(i) subunit alpha-3 (Rattus norvegicus), P08753; 210,000 tested, 0.42% active; percent of control (FP), % (concentration not given with the values); AID 1224905, 2016;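 active means replicate mean at 85% of control or lower, very high polarization wells dropped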;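 further: wells of about 15 µL received 100 nL stock; the first replicate is given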
Target sequence (P08753 whole entry, looked up): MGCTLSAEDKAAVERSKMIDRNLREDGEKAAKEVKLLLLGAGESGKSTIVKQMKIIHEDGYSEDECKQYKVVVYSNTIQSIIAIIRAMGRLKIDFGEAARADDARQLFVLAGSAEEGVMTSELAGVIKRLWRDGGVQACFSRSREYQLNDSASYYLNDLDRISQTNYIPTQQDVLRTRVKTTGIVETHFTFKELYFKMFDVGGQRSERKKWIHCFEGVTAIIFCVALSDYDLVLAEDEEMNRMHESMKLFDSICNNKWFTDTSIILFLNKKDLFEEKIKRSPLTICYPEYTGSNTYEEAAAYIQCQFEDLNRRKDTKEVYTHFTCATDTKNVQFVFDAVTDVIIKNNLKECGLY
HCMV UL50-53 inh: inhibitors of HCMV UL50-UL53 interaction, biochemical, HTRF; normalized percent inhibition; inhibition, % (concentration not given with the values); 190,000 tested, 0.15% active; HCMV UL50-UL53 nuclear egress complex (human cytomegalovirus);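 active means both replicates at 50% or more, plus weaker picks with an unusually low signal ratio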;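 further: stock transfer was 100 nL into about 20 µL; 0% = negative control wells and 100% = wells with untagged competitor protein; inactives centre near -12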
Sa growth inh second temp: second read-out of Sa growth inh, no call of its own (marks repeat the call); relative growth, %; measured here: growth at 30 °C;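 optical density after 20 h as mean of two plates; 100% = untreated growth and lower means inhibition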
Numbers without * were called inactive; · = no result given; & = joins results of further samples.

Keys: A = Sa growth inh; B = Sa growth inh second temp; C = GIV-Gai inh; D = HCMV UL50-53 inh
O=C(Nc1ccc(Cl)cc1)N1CCN(Cc2nc3cccnc3n2-c2ccccc2)CC1
  A: ·; B: ·; C: 107; D: -21

O=C(c1ccc(Cl)c(S(=O)(=O)NCc2cccnc2)c1)N1CCN(c2ncccn2)CC1
  A: 86; B: 83; C: ·; D: -13

Cc1cccc(N2CCN(S(=O)(=O)c3nnc(NC(=O)c4ccc(Cl)cc4)s3)CC2)c1
  A: 104; B: 85; C: 101; D: -11

Oc1ccccc1-c1nc(-c2ccc3c(c2)CCO3)n[nH]1
  A: 73; B: 61; C: 100; D: 37

CC(=O)Nc1ccc(NS(C)(=O)=O)cc1
  A: 99; B: 86; C: 101; D: ·

COc1ccc(-c2cccc(NS(=O)(=O)c3cc(C)c(Cl)cc3C)c2)nn1
  A: 96; B: 70; C: 109; D: ·

CCc1ccc(Oc2c(C(F)(F)F)oc3c(CN4CCCC(C)C4)c(O)ccc3c2=O)cc1 (stereo unspecified)
  A: 82; B: 85; C: 98; D: -19

COc1ccc2cc3c(N)nn(C(=O)CCn4c(=S)oc5ccccc54)c3nc2c1
  A: 97; B: 89; C: 100; D: ·

CCC(=O)NC(Nc1sc(C)c(CC)c1C#N)(C(F)(F)F)C(F)(F)F
  A: 88; B: 90; C: ·; D: 0

CCN(CC)CCn1c(NCc2ccc(C)cc2)nc2ccccc21
  A: ·; B: ·; C: 105; D: 13

(cont.)
Keys: A = Sa growth inh; B = Sa growth inh second temp; C = GIV-Gai inh; D = HCMV UL50-53 inh
COC(=O)c1cc(S(=O)(=O)NCC2CN(Cc3ccccc3)CN(Cc3ccccc3)C2)oc1C
  A: 104; B: 90; C: 102; D: -22

CC(=O)N1CCOc2cc(S(=O)(=O)N3CCCc4ccccc43)ccc21
  A: 110; B: 86; C: 97; D: ·

Cc1cc(F)ccc1NC(=O)CN1C(=O)CCc2cc(S(=O)(=O)N3CCOCC3)ccc21
  A: 103; B: 83; C: 105; D: ·

Cc1ccc2cc(C#N)c(=O)[nH]c2c1
  A: 103; B: 81; C: 94; D: -13

O=C(O)CC1CCCCO1 (stereo unspecified)
  A: 94; B: 79; C: 105; D: -18

O=S(=O)(c1ccccc1)c1nnn2c1nc(NCc1ccccc1)c1ccccc12
  A: ·; B: ·; C: 106; D: 0

Cc1ccc(NC(=O)c2cc(-c3ccc4c(c3)OCO4)on2)cc1
  A: 101; B: 95; C: 95; D: -1

CC(C)(C)C(=O)Nc1ccccc1Cc1ccccc1
  A: 123; B: 86; C: 105; D: -11

Cc1ccc(Nc2cc(C)c3ccccc3n2)cc1
  A: 47; B: 37; C: 110; D: -14

CN=CC1=C(O)C(C(=O)OC)C(C)(C)CC1=O (stereo unspecified)
  A: 102; B: 92; C: 104; D: -34

Grouped by structure: those above containing an aryl methoxy group (2)
Keys: A = Sa growth inh; B = Sa growth inh second temp; C = GIV-Gai inh; D = HCMV UL50-53 inh
COc1ccc(-c2cccc(NS(=O)(=O)c3cc(C)c(Cl)cc3C)c2)nn1
  A: 96; B: 70; C: 109; D: ·

COc1ccc2cc3c(N)nn(C(=O)CCn4c(=S)oc5ccccc54)c3nc2c1
  A: 97; B: 89; C: 100; D: ·

(continued)
Keys: A = Sa growth inh; B = Sa growth inh second temp; C = GIV-Gai inh; D = HCMV UL50-53 inh
COC(=O)c1ccc(COC(=O)C(c2ccccc2)c2ccccc2)o1
  A: 89; B: 81; C: ·; D: -23

N#C/C(=C\c1ccc(N2CCOCC2)cc1)C(=O)NCc1ccccc1
  A: 95; B: 91; C: ·; D: -26

O=C(Nc1ccc(F)cc1)c1cccc2c1C(=O)N(Cc1ccccn1)C2
  A: 111; B: 103; C: 97; D: 5

CCOc1ccc(NC(=O)Cn2c(=O)n(-c3cccc(C)c3)c(=O)c3c2c2cc(C)ccc2n3C)cc1
  A: ·; B: ·; C: 100; D: -28

CCOCCCNC(=O)c1ccc(CN2C(=O)C(C)=C(c3ccc(C)c(C)c3)S2(=O)=O)cc1
  A: ·; B: ·; C: 99; D: -18

COc1ccc(C2CC(=O)N(c3ccc(C)c(Cl)c3)C(=O)C2)cc1OC
  A: ·; B: ·; C: 105; D: -8

O=C(COc1cccc(-c2nc(-c3ccccc3)no2)c1)Nc1ccccc1
  A: ·; B: ·; C: 106; D: -14

O=C1NC(=Nc2ccccc2)S/C1=C/c1cc(Br)ccc1O
  A: ·; B: ·; C: 107; D: -18

COc1ccccc1-c1noc(-c2cn(C)c3cc(N4CCCCC4)c(F)cc3c2=O)n1
  A: ·; B: ·; C: 102; D: 13

CC(CCc1ccccc1)NC(=O)COc1cc(=O)n(C)c2ccccc12 (stereo unspecified)
  A: 76; B: 95; C: 102; D: ·

The list goes on.
Keys: A = Sa growth inh; B = Sa growth inh second temp; C = GIV-Gai inh; D = HCMV UL50-53 inh
O=C(O)c1cccc2[nH]c(=O)c(=O)[nH]c12
  A: 92; B: 92; C: 96; D: -26

NC(=O)c1ccccc1NC(=O)COC(=O)CC1CC2CCC1C2 (stereo unspecified)
  A: 106; B: 88; C: ·; D: -26

CC1(C)CC(=O)c2cnc(NCCc3ccccc3)nc2C1
  A: 87; B: 79; C: 103; D: ·

CCOc1ccccc1-c1noc(-c2cnn3c(C)c(Cc4ccccc4C)c(C)nc23)n1
  A: ·; B: ·; C: 185; D: -12

CCCN1C2CCCC1CC(NC(=O)c1ccc(F)cc1)C2 (stereo unspecified)
  A: 97; B: 108; C: 108; D: -2

CC(=O)N1CCc2cc(Br)cc(S(=O)(=O)N3CCN(c4cccc(C)c4)C(C)C3)c21 (stereo unspecified)
  A: 97; B: 82; C: 109; D: -23

COC(CNc1cccc(Cl)c1C#N)OC
  A: 115; B: 86; C: 105; D: -2

Cn1nnc2cc(C(=O)Nc3ccccc3)ccc21
  A: ·; B: ·; C: 102; D: -6

CC(NC(=O)c1ccc(Cl)cc1)C(=O)N1CCCCC1 (stereo unspecified)
  A: 85; B: 93; C: 111; D: -8

Cc1ccc2c(c1)C(=O)C(O)(c1ccccc1)C(=O)N2 (stereo unspecified)
  A: 106; B: 80; C: 103; D: -23

More structures:
Keys: A = Sa growth inh; B = Sa growth inh second temp; C = GIV-Gai inh; D = HCMV UL50-53 inh
CCCc1cc(=O)[nH]c(SCc2nc(-c3ccccc3)oc2C)n1
  A: ·; B: ·; C: 102; D: -6

NC(=O)COc1ccc(-c2nc3ccccc3s2)cc1
  A: 116; B: 99; C: 106; D: -10

NS(=O)(=O)c1ccc(NC(=O)C2CCCN(c3ccc(=O)n(-c4cccc(F)c4)n3)C2)cc1 (stereo unspecified)
  A: ·; B: ·; C: 104; D: -36

COc1ccccc1C1CCN(Cc2sc3ccccc3c2C)CC1
  A: 95; B: 91; C: 100; D: -14

COC(=O)c1ncn2c1C(=O)N(C1CC1)C(C)(C(=O)NC1CCCC1)C2 (stereo unspecified)
  A: ·; B: ·; C: 104; D: -11

NS(=O)(=O)c1ccc(-c2ccc(/C=N/NC(=O)Cc3cccs3)o2)cc1
  A: 80; B: 78; C: ·; D: -47

COc1ccc2c(c1)CN(Cc1ccccc1)CO2
  A: 103; B: 83; C: 103; D: -40

Cc1ccc(CN2C(=O)CSC2=O)cc1
  A: 86; B: 93; C: ·; D: -14

CCCn1c(CN2CCCC2)nc2cc(NC(C)=O)ccc21
  A: ·; B: ·; C: 102; D: -5

CC1CN(C(=S)Nc2cccc(C(F)(F)F)c2)CC(C)O1 (stereo unspecified)
  A: 103; B: 86; C: 99; D: -26

(continued)
Keys: A = Sa growth inh; B = Sa growth inh second temp; C = GIV-Gai inh; D = HCMV UL50-53 inh
COC(=O)c1sc2ccccc2c1O
  A: 111; B: 67; C: 104; D: -34

CCOc1ccccc1N1CC(c2nc3ccccc3n2CCOc2ccc(C(C)(C)C)cc2)CC1=O (stereo unspecified)
  A: 89; B: 33; C: 106; D: -10

Cc1ccc(C(=O)Nc2ccccc2)cc1S(=O)(=O)Nc1ccc(Br)cc1
  A: 89; B: 56; C: 103; D: -28

O=C1c2ccccc2C(=O)N1CC1c2ccccc2CCN1S(=O)(=O)c1ccc2[nH]c(=O)c(=O)[nH]c2c1 (stereo unspecified)
  A: 85; B: 84; C: 99; D: -41

CC(C)(C)C(=O)NCCc1nc2ccccc2n1CCCCOc1ccccc1
  A: 115; B: 81; C: 100&104; D: -10&-15

O=C1CSC(=O)N1CCN=Cc1c(O)n(-c2ccc(Cl)cn2)c(=O)c2ccccc12
  A: 100; B: 88; C: ·; D: -49

CCOc1ccc(NC(=O)CC2C(=O)N(c3ccc(OC)cc3)C(=O)N2C2CCCCC2)cc1 (stereo unspecified)
  A: 96; B: 85; C: 104; D: 13

COc1ccc(N/N=C(\C#N)C(=O)NCCc2ccc(OC)c(OC)c2)cc1
  A: 91; B: 89; C: 102; D: -39

CN(C(=O)COC(=O)c1ccc(C(C)(C)C)cc1)c1ccccc1
  A: 106; B: 85; C: ·; D: -37

Cc1ccc(C(=O)c2oc3ccccc3c2NC(=O)CCCN2C(=O)c3ccccc3C2=O)cc1
  A: 115; B: 93; C: ·; D: -5

Quoted from the listing.
Sa growth inh second temp with O=C(Nc1ccc(F)cc1)c1cccc2c1C(=O)N(Cc1ccccn1)C2 : 103
GIV-Gai inh with CC(CCc1ccccc1)NC(=O)COc1cc(=O)n(C)c2ccccc12 (stereo unspecified) : 102
HCMV UL50-53 inh with Cc1cccc(N2CCN(S(=O)(=O)c3nnc(NC(=O)c4ccc(Cl)cc4)s3)CC2)c1 : -11
Sa growth inh with O=C(O)c1cccc2[nH]c(=O)c(=O)[nH]c12 : 92
Sa growth inh second temp with CC(=O)N1CCc2cc(Br)cc(S(=O)(=O)N3CCN(c4cccc(C)c4)C(C)C3)c21 (stereo unspecified) : 82

(continued)
Keys: A = Sa growth inh; B = Sa growth inh second temp; C = GIV-Gai inh; D = HCMV UL50-53 inh
COc1ccc(OC)c(NC(=O)c2ccc3c(c2)CCCN3S(C)(=O)=O)c1
  A: 89; B: 88; C: 102; D: -22

COc1cc2c(cc1OC)C(c1cc(OC)c(O)c(OC)c1)CC(=O)N2 (stereo unspecified)
  A: 115; B: 91; C: 108; D: -2

N#Cc1sccc1NS(=O)(=O)c1cccc(C(F)(F)F)c1
  A: 71; B: 52; C: 98; D: -8

CCOC(=O)Cn1cc(/C=C2\C(=O)NC(=O)N(c3ccc(Br)cc3)C2=O)c2ccccc21
  A: ·; B: ·; C: 112; D: 4

O=C(Cn1c(-c2cccs2)cc2ccccc21)NC1CCCC1
  A: 103; B: 95; C: 104; D: -12

O=C(/C=C1/Sc2ccccc2N(Cc2ccc(F)cc2)C1=O)N1CCCC1
  A: 116; B: 85; C: 104; D: ·

CC1CCCN(S(=O)(=O)c2ccccc2)C1 (stereo unspecified)
  A: 86; B: 88; C: ·; D: -12

CCCC(=O)NCCc1nc2ccccc2n1CCC
  A: 99; B: 97; C: 104; D: ·

S=c1nc(C2CC2)[nH]c2ccccc12
  A: 98; B: 57; C: 103; D: -33

CN(C)CCN(C)CC1=CCC2CC1C2(C)C (stereo unspecified)
  A: 59; B: 51; C: 104; D: -20

Continued:
Keys: A = Sa growth inh; B = Sa growth inh second temp; C = GIV-Gai inh; D = HCMV UL50-53 inh
Cc1nn(-c2ccccc2)c(N2CCCCC2)c1/C=N/O
  A: 94; B: 88; C: 105; D: -17

Cc1ccc(CCNC(=O)c2cc3c(C)nccc3[nH]c2=O)cc1
  A: 96; B: 80; C: 102&104; D: ·

CCCSc1nc2ccccc2n1CC(=O)NCc1ccccc1OC
  A: 120; B: 100; C: ·; D: 4

Cc1cc(C)c2c(=O)cc(C(=O)Nc3nc4ccc(F)cc4s3)oc2c1
  A: 96; B: 83; C: 100; D: -26

O=C(Nc1cccc(C(=O)OCc2cc(=O)n3c4c(sc3n2)CCCC4)c1)c1ccccc1
  A: 83; B: 88; C: 101; D: ·

CN1CCN(c2oc(-c3ccccc3)nc2S(=O)(=O)c2ccccc2)CC1
  A: ·; B: ·; C: 106; D: 10

CC(C)(C)NC(=S)Nc1ccc2nccnc2c1
  A: 107; B: 88; C: 101; D: -76

Five compounds from above, sorted by heavy-atom count, largest number first.
Keys: A = Sa growth inh; B = Sa growth inh second temp; C = GIV-Gai inh; D = HCMV UL50-53 inh
CN1CCN(c2oc(-c3ccccc3)nc2S(=O)(=O)c2ccccc2)CC1
  A: ·; B: ·; C: 106; D: 10

CCCSc1nc2ccccc2n1CC(=O)NCc1ccccc1OC
  A: 120; B: 100; C: ·; D: 4

Cc1ccc(CCNC(=O)c2cc3c(C)nccc3[nH]c2=O)cc1
  A: 96; B: 80; C: 102&104; D: ·

Cc1nn(-c2ccccc2)c(N2CCCCC2)c1/C=N/O
  A: 94; B: 88; C: 105; D: -17

CN(C)CCN(C)CC1=CCC2CC1C2(C)C (stereo unspecified)
  A: 59; B: 51; C: 104; D: -20
